From PubChem BioAssay
GLA inh pH 4.5: qHTS Assay for Inhibitors of Human alpha-Galactosidase at pH 4.5. Alpha-galactosidase A (Homo sapiens), P06280. purified enzyme, 4-MU-alpha-Gal fluorescence, pH 4.5. activity change, negative = inhibition, % at 105 µM. 230,000 tested, under 10 active; inconclusive = small, poorly fitted or top-dose-only inhibition, or a rising curve; inactive = flat fitted curve, though single readings scatter; no compound was filed as active;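 note: 0% = full activity with enzyme and -100% = basal without enzyme; dose as in the result columns while the protocol names 77 µM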
Target sequence (P06280 whole entry, looked up): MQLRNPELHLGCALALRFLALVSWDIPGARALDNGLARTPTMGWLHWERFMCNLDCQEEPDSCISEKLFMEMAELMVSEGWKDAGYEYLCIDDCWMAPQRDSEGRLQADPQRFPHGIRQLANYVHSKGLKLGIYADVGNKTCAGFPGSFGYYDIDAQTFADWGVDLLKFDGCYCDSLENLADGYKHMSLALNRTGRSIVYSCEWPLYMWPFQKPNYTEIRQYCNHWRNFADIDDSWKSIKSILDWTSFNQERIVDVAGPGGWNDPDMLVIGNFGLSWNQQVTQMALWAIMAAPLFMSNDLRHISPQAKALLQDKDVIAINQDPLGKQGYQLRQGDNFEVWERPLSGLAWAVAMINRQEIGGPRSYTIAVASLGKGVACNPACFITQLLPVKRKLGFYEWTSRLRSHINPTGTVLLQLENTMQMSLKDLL
miR-21 FLuc: qHTS Assay for Modulators of miRNAs and/orActivators of miR-21; HeLa miR-21 FLuc reporter, luciferase, 48 h; 340,000 tested, under 10 active; Potency, µM (highest dose often 38.3 µM), for the others: at the top dose reporter change, positive = more light; AID 2288, 2010; active = well fitted rising curve with a large enough effect; inconclusive = small, poorly fitted or top-dose-only effect; inactive = no such curve, though single readings can be large or run the other way;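 note: % of control where 0% means no effect; miR-21 action dims this reporter so a rising signal means less miR-21 action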
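HeLa cells stably expressing CMV-driven firefly luciferase with a downstream miR-21 binding sequence, endogenously expressing miR-21, were treated with titrations (up to about 40uM final) for 48 hours at 37 degree Celsius. Luciferase luminescence was read after lysis.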
Rango dissoc inh: qHTS Assay for Inhibitors of RanGTP induced Rango (Ran-regulated importin-beta cargo) - Importin beta complex dissociation | Potency, µM (doses to about 46.1 µM), inactives show at the highest dose activity change, negative = inhibition | AID 540253, 2011 | 0.071% of 340,000 active | Biochemical FRET Rango-importin beta, RanGTP-induced dissociation; active means falling FRET ratio curve, often poorly fitted, with flat reads before Ran was added; inconclusive means other falling curves, or compound fluorescence or quenching; inactive means flat or rising ratio curve;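 note: potency is the fitted concentration of half-maximal effect; % of control where 0% means no effect; nearly all actives have a fitted effect of over 45% in size; -100% = wells without RanGTP and RCC1; the record marks most hits as doubtful in a second field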
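Rango/importin beta premix (0.1/0.25 uM final), PBS + 1 mM DTT + 0.02% Tween-20 + 0.1% BSA; cpd 5 min RT; FRET pre-read; + RanGTP-RCC1 (0.6 uM Ran, 2 mM GTP, 0.2 uM RCC1); 45 min RT; FRET post-read, ex 430, em 486/530 nm.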
Rango-impB inh: qHTS Assay for Inhibitors of Rango (Ran-regulated importin-beta cargo) - Importin beta complex formation. Importin subunit beta-1 (Homo sapiens), Q14974. Rango CFP/YFP FRET sensor + importin beta, 45 min. Potency, µM (series often up to 92.2 µM), for inactives: top-dose inhibition of complex formation. 0.031% of 340,000 active; active = rising FRET ratio curve, often small or poorly fitted; inconclusive = mostly compound fluorescence or quenching in the first reads; inactive = flat curves in all reads;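 note: potency is the fitted concentration of half-maximal effect; 0% = DMSO wells and 100% = buffer wells lacking importin beta; nearly all actives have a fitted effect of over 15% in size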
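Inhibition scored from the CFP 486 nm/YFP 530 nm FRET ratio 45 min after adding 0.125 microM importin beta to 50 nM Rango biosensor preincubated 5 min with compound (room temperature, PBS with DTT, Tween-20, BSA). No-importin wells as positive control.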
The depositor's hits bear a star; ? = inconclusive; / = no result given; & = joins results of further samples. Not all compounds are listed; count on the stated rates, not on these rows.

entry | SMILES | GLA inh pH 4.5 | miR-21 FLuc | Rango dissoc inh | Rango-impB inh
1 | Cc1cccc(NC(=O)C2CCCN(S(=O)(=O)c3cccc4nsnc34)C2)c1 (stereo unspecified) | 6 | 0% | -8% | 1.3%
2 | Cn1c(=O)[nH]c(=O)c2c1nc(NCc1ccco1)n2CCCc1ccccc1 | / | -5% | 4% | 6.2%
3 | Cc1cc(Cl)ccc1NC(=O)C1CCN(S(C)(=O)=O)CC1 | 1 | -1% | -12% | -0.2%
4 | Cc1cc(NC(=O)CSc2nnc(C3CC3)n2-c2ccccc2)no1 | 5 | 2% | 1% | -1.3%
5 | CC1CCC2(CC1)NC(=O)N(CC(=O)Nc1nc(-c3ccc(F)cc3)cs1)C2=O (stereo unspecified) | 2 | -5% | -7% | -0.5%
6 | Cc1cc(C)cc(SCc2noc(C(=O)NCc3ccccc3)c2C(=O)NCc2ccccc2)c1 | 3 | 2% | 1% | 0.2%
7 | O=[N+]([O-])c1ccc(N2CCOCC2)cc1NCc1ccccc1 | -2 | -12% | 3% | 4.9%
8 | COc1ccc(CCN2CC(C(=O)O)CC2=O)cc1 (stereo unspecified) | -1 | -2% | -3% | 0.5%
9 | COc1ccc(F)cc1S(=O)(=O)N1CCCCC1 | 12 | 0% | 1% | ?
10 | O=C1[C@H]2[C@@H](c3ccc(Cl)cc3)N3C(=O)N(c4cccc(F)c4)C(=O)[C@@]3(Cc3ccc(Cl)cc3)[C@H]2C(=O)N1C1CCCCC1 | / | 1% | 1% | -0.1%
11 | CC(=O)Nc1cc(-c2nc3ccccc3o2)ccc1Cl | / | -29% | 1% | -0.9%
12 | COc1ccc(C(=O)/C(=C\N(C)C)n2nc(C)cc2C)cc1 | 11 | 0% | 0% | -2.6%
13 | CN1CCCN(C(=O)c2ccc(Cl)c(S(=O)(=O)N(C)c3ccccc3)c2)CC1 | -23 | -5% | 16% | -1.3%
14 | CCc1ccc(S(=O)(=O)Nc2ccc(-c3nc4cccnc4s3)cc2)s1 | ? | -51% | ? | ?
15 | CC1(C)CC(=O)c2sc(NC(=O)CN3CCOCC3)nc2C1 | -2 | 0% | 0% | -1.5%
16 | CN(C)CCCNC(=O)/C(=N\O)c1ccccc1 | -17 | -4% | 9% | -0.9%
17 | CCOC(=O)N1CCN(C(=O)CCn2c(=O)[nH]c3ccsc3c2=O)CC1 | 2 | 0% | -8% | -3.0%
18 | Cc1c(C(=O)N2CCN(c3ccccc3)CC2)oc2c1C(=O)CC(C)(C)C2 | / | 1% | 12% | -6.0%
19 | CCOc1ccc(-c2ccc(SCc3ccccn3)nn2)cc1 | -9 | -22% | 10% | 0.4%
20 | CCCc1cc(=O)n2[nH]c(-c3ccc(OC)cc3)nc2n1 | 2 | -18% | 3% | -0.4%

Reprinted at random: 2 entries already listed, in no set order.
entry | SMILES | GLA inh pH 4.5 | miR-21 FLuc | Rango dissoc inh | Rango-impB inh
6 | Cc1cc(C)cc(SCc2noc(C(=O)NCc3ccccc3)c2C(=O)NCc2ccccc2)c1 | 3 | 2% | 1% | 0.2%
16 | CN(C)CCCNC(=O)/C(=N\O)c1ccccc1 | -17 | -4% | 9% | -0.9%

Next records:
entry | SMILES | GLA inh pH 4.5 | miR-21 FLuc | Rango dissoc inh | Rango-impB inh
21 | O=C(c1ccco1)N1CCN(c2nc3ccsc3c(=O)s2)CC1 | -1 | -39% | ? | 0.0%
22 | CC(C)NC(=O)Nc1cccc2c1O[C@H](CN(C)C(=O)NC1CCCCC1)[C@@H](C)CN([C@H](C)CO)C2=O | / | / | 4% | -0.7%
23 | Cc1[nH]nc2c1C(CCc1ccccc1)C(C#N)=C(N)O2 (stereo unspecified) | 7 | 2% | 3% | 1.4%
24 | CCN(CC(=O)N1CCCC1)S(=O)(=O)c1ccc2ccccc2c1 | / | 3% | -7% | -3.6%
25 | Cc1cccc(-n2c(SCC(N)=O)nc3c(c2=O)C2(CCCCC2)Cc2ccccc2-3)c1 | -3 | 4% | 0% | -0.5%
26 | O=C(NCc1cccnc1)C1CC(=O)N(c2ccc(Cl)cc2)C1 (stereo unspecified) | -7 | 0% | 3% | -0.9%
27 | Nc1nnc(SCCCC(=O)c2ccc(Br)cc2)s1 | 6 | -32% | 3% | 1.4%
28 | CC(=O)Cc1nsc(NC(=O)c2ccc(COc3ccccc3)o2)n1 | -4 | -4% | 0% | 0.2%
29 | Cc1ccc(CN(C)C(=O)c2c(C)nn(-c3ccccc3)c2C)cc1 | / | -1% | 10% | 2.3%
30 | CCC1=NC(c2ccc(Br)cc2)N(O)C1(C)C (stereo unspecified) | -3 | -5% | -4% | -0.1%
31 | CN(C)S(=O)(=O)c1ccc(C(=O)NCCC(=O)N2CCCC2)cc1 | / | -1% | 0% | -0.5%
32 | Cc1c(Cl)cccc1NC(=O)Nc1ccccc1C(N)=O | 2 | 6% | 0% | 1.6%
33 | CCOC(=O)c1ccc2c(c1)N(C)C(=O)c1ccccc1S2 | / | -4% | -1% | -3.5%
34 | CCc1cccc2c(C(=O)CSc3nnc(C4CC4)o3)c[nH]c12 | / | / | 7% | 1.4%
35 | CCCCc1c(C)nc2nc(SCc3ccc(Cl)cc3)[nH]n2c1=O | / | -2% | -16% | -1.5%
36 | Cc1nc2c3ccccc3nc(NNC(=O)CCC(=O)N3CCN(c4ccc(F)cc4)CC3)n2n1 | / | 5%&8% | -3% | -1.3%
37 | CCN1C(=O)C(F)(CC)C(=O)c2ccccc21 (stereo unspecified) | -1 | -7% | 11% | -4.5%
38 | O=C(Nc1ccc(S(=O)(=O)Nc2ccccc2)cc1)C1COc2ccccc2O1 (stereo unspecified) | 7 | ? | -5% | 0.5%
39 | CCCCCCCC(=O)NNC(=O)c1c(O)c2ccccc2[nH]c1=O | 2 | -2% | 23% | 0.9%
40 | Cc1nc2c3cc(F)ccc3n(Cc3ccc(F)cc3)c2s1 | -12 | 11% | -15% | 1.7%
41 | Cc1cc(C(=O)N2CCCC(CO)(Cc3ccc(F)cc3)C2)c(C)o1 (stereo unspecified) | / | -4% | -6% | -0.8%
42 | CC(C)CN(C(=O)CCc1ccccc1Cl)c1c(N)n(Cc2ccccc2)c(=O)[nH]c1=O | / | / | 25% | 0.3%
43 | COc1ccccc1Oc1nc2ccccn2c(=O)c1/C=C(\C#N)C(=O)Nc1c(C)n(C)n(-c2ccccc2)c1=O | -1 | 2% | -11% | ?
44 | Cc1cc(C(=O)OCC(=O)NCc2ccccc2Cl)c(C)o1 | 2 | -4% | 9% | 2.0%
45 | CCOC(=O)/C(=C/c1ccc(N2CCC(c3ccccc3)=N2)cc1)C(C)=O | -9 | -33% | ? | ?
46 | Cc1cc2ccccc2n1CCNC(=O)C(C)C | 2 | -8% | ? | ?
47 | Cn1c(NCc2ccco2)nc2c1c(=O)n(Cc1ccc(Cl)cc1Cl)c(=O)n2C | -2 | -4% | 7% | -1.2%
48 | CCOC(=O)c1cc(C(=O)OCC)c2cccc(C)n2c1=O | -4 | -3% | ? | ?
49 | COc1cccc(NC(=O)CN(C)C(=O)c2ccc3[nH]c4c(c3c2)CC(C)CC4)c1 (stereo unspecified) | / | / | 2% | 0.0%
50 | CN1CCN(CC(=O)N2c3ccccc3Sc3ccccc32)CC1 | / | -3% | 1% | 3.2%
51 | Cc1cc(C(=O)NCCC2=CCCCC2)c(C)o1 | -1 | -43% | -19% | -0.6%
52 | Cn1c(=O)c(=O)n(C)c2cc(S(=O)(=O)NCCc3ccccc3)ccc21 | 4 | -7% | 1% | 0.5%
53 | O=C1NC[C@@H](c2ccccc2)OC(=O)[C@H](Cc2ccc(F)cc2)CC/C=C/C[C@H]1CC(=O)N(CCO)Cc1ccccc1 | / | / | 8% | 0.8%
54 | O=C(NCc1ccc(Cl)cc1)C(=O)NCC1OCCCN1S(=O)(=O)c1cccs1 (stereo unspecified) | / | 1% | 5% | 1.4%
55 | CCC(C)Sc1ccc(-c2nc3cc(C)ccn3c2NC2CCCCC2)cc1 (stereo unspecified) | / | / | -19% | ?
56 | CCn1cc(C(=O)O)c(=O)c2cnc(N3CCN(C(=S)NC(=O)c4ccc(OC)cc4)CC3)nc21 | / | -6% | 14% | -2.4%
57 | COc1ccc(-c2c3c(=O)n(C)c(=O)n(C)c3cn2C2CCCCC2)cc1 | -1 | -23% | 9% | 1.6%
58 | CCOc1ccc2nc(Nc3nc(CSc4nnnn4-c4ccccc4)cc(=O)[nH]3)nc(C)c2c1 | 4 | -2% | -9% | ?
59 | O=C(CSc1n[nH]c(=O)[nH]c1=O)N/N=C/C=C\c1ccccc1 | 10 | 1% | 2% | 0.0%
60 | CCCCN1C(=O)C2(NNc3ccccc3O2)c2ccccc21 (stereo unspecified) | -7 | -12% | ? | ?
61 | O=C(NCCCn1ncc2ccccc21)c1cc(COc2c(F)cccc2F)on1 | 3 | 3% | 1% | -1.7%
62 | Cc1ccc(OCC(O)CN2CCN(Cc3ccc4c(c3)OCO4)CC2)c(C)c1 (stereo unspecified) | -5 | -6% | -11%&7% | -2.2%&2.9%
63 | CSCCC(NC(=O)c1cc(CC(C)C)oc1C)C(=O)O (stereo unspecified) | -2 | 1% | ? | 0.1%
64 | Cc1ccc(C)c(N(CC(=O)NCC2CCCO2)C(=O)CCC(=O)Nc2nccs2)c1 (stereo unspecified) | / | 11% | -9% | -3.7%
65 | COc1ccc(OC)c(CN2CCN(C(=O)c3cccs3)CC2)c1 | -2 | 0% | 3% | 3.8%
66 | Cc1cccc(C)c1OCc1cc(C(=O)N2CCC(c3ccccc3)CC2)no1 | / | -50% | 5% | -3.9%
67 | C=CCn1c(SCC(=O)N2CCN(c3ccccc3)CC2)nnc1-c1ccco1 | -4 | 11% | 18% | 5.1%
68 | Oc1ccc(-c2nc3cnccn3c2Nc2ccc3c(c2)OCCO3)cc1 | 3 | -37% | ? | -2.2%
69 | CSCCC(NC(=O)c1ccccc1Cl)C(=O)N(C)CC(=O)Nc1ccc(N2CCOCC2)cc1 (stereo unspecified) | / | / | 6% | 2.7%
70 | CCCCCCSc1ccc(-c2nc3ccccn3c2NCCCC)cc1 | / | / | ? | ?
71 | C=CCNC(=O)C1CC1(c1cccc(C)c1)c1cccc(C)c1 (stereo unspecified) | / | / | -5% | 0.1%
72 | O=C(NCc1ccc(Cl)cc1)C1CCCO1 (stereo unspecified) | 7 | -1% | 3% | 1.7%
73 | CCc1nnc(NC(=S)Nc2ccccc2)s1 | -2 | -56% | 33% | 4.8%
74 | CCc1c(O)nc(SCC(=O)c2ccccc2)n(-c2ccccc2)c1=O | 2 | -14% | -1% | -4.8%
75 | Cc1cc(C)c(C)c(OCC(=O)O/N=C(\N)c2ccncc2)c1 | / | 2% | 55% | 0.4%
76 | Cc1cc(NC(=O)/C=C/C(=O)N(CC(=O)NC2CCCC2)c2ccc(F)cc2)no1 | 7 | -1% | 12% | 0.0%
77 | Nc1c(C(=O)N2CCOCC2)sc(=S)n1-c1ccccc1 | -7 | -10% | -14% | 1.9%
78 | CC(=O)NCCNC(=O)c1ccc2c(c1)S(=O)(=O)c1ccccc1C2=O | / | -13% | 9% | 5.1%
79 | COCCN(C(=O)COC(=O)CCC(=O)c1ccc(C)cc1)c1c(N)n(Cc2ccccc2)c(=O)[nH]c1=O | / | -2% | 5% | -0.1%
80 | COc1ccc(N2CCN(c3nc4ccccn4c(=O)c3/C=C(\C#N)S(=O)(=O)c3ccccc3)CC2)cc1 | / | -14% | -17% | -2.7%

(listing goes on)
entry | SMILES | GLA inh pH 4.5 | miR-21 FLuc | Rango dissoc inh | Rango-impB inh
81 | COc1ccccc1C(=O)COC(=O)CCCN=C1NS(=O)(=O)c2ccccc21 | / | / | 3% | -1.3%
82 | CC1=NN(c2ccccc2)C(=O)/C1=C\c1c(C)[nH]n(-c2ccccc2)c1=O | -28 | 2% | -20% | 1.4%
83 | O=C(Nc1ccc(S(=O)(=O)Nc2ncccn2)cc1)c1cnc(Cl)c(Cl)c1 | 5 | -1% | 0% | -1.9%
84 | OCCSc1nncn1/N=C/c1c[nH]c2ccccc12 | 1 | -26% | 3% | 2.1%
